A1 apoptosis 2 – A1 inhibition read as caspase activation | 24,000 tested, under 10 active | MEF A1-2A-BIM cells, caspase-Glo luminescence, 3 h; percent of clofoctol response, DMSO zero | caspase activation, % (concentration not given with the values) | AID 2465; in the data active = caspase activation above about 5.9%;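 note: wells of about 30 µL received 50 nL stock; the first replicate is given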
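Evaluation: Caspase-3/7 activity from luminescence increase | Assay system: A1-2A-BIM mouse embryonic fibroblasts | Quantity: 2500 MEF cells/well | Medium: RPMI-1640 plus 10% FBS | Detection: Caspase-Glo 3/7 luminescence, 1 h at room temperature | Dosing: 50 nL compound per well, pinned | Timing: Cells settled overnight, compound exposure 3 h at 37 °C, 5% CO2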
* = called active by the depositor. Only part of the results is shown; rates above refer to the full screens.

mol	A1 apoptosis 2
Cc1ccc(S(=O)(=O)N(C)C[C@@H]2Oc3ccc(NS(=O)(=O)c4ccc(Cl)cc4)cc3CC(=O)N([C@@H](C)CO)C[C@@H]2C)cc1	-0.1
C[C@@H]1CN([C@@H](C)CO)C(=O)c2cc(NC(=O)CCCN(C)C)ccc2O[C@@H](C)CCCCO[C@@H]1CN(C)S(=O)(=O)c1ccccc1	-0.2
C=CC[C@]1(C(=O)OC)COC(c2ccc(OCCCO)cc2)=N1	-2.0
C[C@@H]1CN([C@H](C)CO)C(=O)Cc2cc(NC(=O)NC3CCCCC3)ccc2O[C@@H]1CN(C)S(C)(=O)=O	0.2
C[C@H](CO)N1C[C@H](C)[C@H](CN(C)S(=O)(=O)c2ccc(F)cc2)Oc2ccc(NS(=O)(=O)c3ccccc3)cc2C1=O	-0.8
C[C@@H]1CN([C@@H](C)CO)C(=O)Cc2cc(NC(=O)C3CCCCC3)ccc2O[C@H]1CN(C)Cc1ccc2c(c1)OCO2	-0.9
Cc1noc(C)c1NC(=O)Nc1ccc2c(c1)C(=O)N([C@@H](C)CO)C[C@H](C)[C@@H](CN(C)S(=O)(=O)c1cccs1)OCCCC[C@H](C)O2	-1.0
C[C@@H]1CN([C@H](C)CO)C(=O)Cc2cc(NC(=O)NC3CCCCC3)ccc2O[C@H]1CN(C)S(=O)(=O)c1ccc(Cl)cc1	0.5
O=C(NCCCn1cc(C(=O)NO)nn1)Nc1ccccc1	1.3
C[C@H](CO)N1C[C@H](C)[C@@H](CN(C)C(=O)Nc2cccc3ccccc23)Oc2c(NC(=O)Nc3ccccc3)cccc2C1=O	-1.5
C[C@H](CO)N1C[C@H](C)[C@@H](CN(C)S(=O)(=O)c2cn(C)cn2)Oc2ccc(NC(=O)C3CC3)cc2CC1=O	0.5
O=C(NO)c1cccc(C(=O)N/N=C/c2cccc3ccccc23)c1	0.6

The final 7 entries of the part before are carried over, then new ones follow.
mol	A1 apoptosis 2
C[C@@H]1CN([C@@H](C)CO)C(=O)Cc2cc(NC(=O)C3CCCCC3)ccc2O[C@H]1CN(C)Cc1ccc2c(c1)OCO2	-0.9
Cc1noc(C)c1NC(=O)Nc1ccc2c(c1)C(=O)N([C@@H](C)CO)C[C@H](C)[C@@H](CN(C)S(=O)(=O)c1cccs1)OCCCC[C@H](C)O2	-1.0
C[C@@H]1CN([C@H](C)CO)C(=O)Cc2cc(NC(=O)NC3CCCCC3)ccc2O[C@H]1CN(C)S(=O)(=O)c1ccc(Cl)cc1	0.5
O=C(NCCCn1cc(C(=O)NO)nn1)Nc1ccccc1	1.3
C[C@H](CO)N1C[C@H](C)[C@@H](CN(C)C(=O)Nc2cccc3ccccc23)Oc2c(NC(=O)Nc3ccccc3)cccc2C1=O	-1.5
C[C@H](CO)N1C[C@H](C)[C@@H](CN(C)S(=O)(=O)c2cn(C)cn2)Oc2ccc(NC(=O)C3CC3)cc2CC1=O	0.5
O=C(NO)c1cccc(C(=O)N/N=C/c2cccc3ccccc23)c1	0.6
C[C@@H]1CN([C@@H](C)CO)C(=O)Cc2cc(NS(=O)(=O)c3cn(C)cn3)ccc2O[C@H]1CN(C)Cc1ccccc1	0.2
Cc1ccc(S(=O)(=O)N(C)C[C@H]2Oc3ccc(NC(=O)c4ccncc4)cc3CC(=O)N([C@@H](C)CO)C[C@@H]2C)cc1	-0.3
C[C@@H]1CN([C@@H](C)CO)C(=O)c2cc(NS(=O)(=O)c3cn(C)cn3)ccc2O[C@@H](C)CCCCO[C@H]1CN(C)S(=O)(=O)c1cn(C)cn1	-0.1
C[C@@H]1CCCCO[C@@H](CN(C)C(=O)NC2CCCCC2)[C@H](C)CN([C@H](C)CO)C(=O)c2cc(N(C)C)ccc2O1	0.3
C[C@@H]1CN([C@@H](C)CO)C(=O)c2cc(NS(=O)(=O)c3cn(C)cn3)ccc2O[C@H]1CN(C)Cc1ccc(C(=O)O)cc1	1.4
CNC[C@@H]1OCCCC[C@@H](C)Oc2ccc(NC(=O)c3ccccc3)cc2C(=O)N([C@@H](C)CO)C[C@H]1C	-0.7
C[C@H](CO)N1C[C@H](C)[C@H](CN(C)S(=O)(=O)c2ccccc2)Oc2ccc(NS(=O)(=O)c3cccs3)cc2CC1=O	0.9
C[C@@H]1CCCCO[C@H](CN(C)C(=O)c2ccncc2)[C@H](C)CN([C@@H](C)CO)C(=O)c2cc(N(C)C)ccc2O1	0.3
COc1ccc(S(=O)(=O)Nc2ccc3c(c2)C(=O)N([C@H](C)CO)C[C@@H](C)[C@H](CN(C)S(=O)(=O)c2cn(C)cn2)OCCCC[C@@H](C)O3)cc1	0.3
C[C@@H]1CCCCO[C@@H](CN(C)C(=O)Cc2ccccc2)[C@@H](C)CN([C@H](C)CO)C(=O)c2cc(NS(=O)(=O)c3ccc(F)cc3)ccc2O1	0.1
COc1ccc(S(=O)(=O)Nc2ccc3c(c2)C(=O)N([C@@H](C)CO)C[C@H](C)[C@@H](CN(C)C(=O)NC(C)C)O3)cc1	-0.9
COc1ccc(S(=O)(=O)Nc2cccc3c2O[C@@H](CN(C)C(=O)Nc2ccc(F)cc2)[C@H](C)CN([C@@H](C)CO)C3=O)cc1	1.4
C[C@H]1ON(c2ccc(C(=O)OC(C)(C)C)cc2)[C@@H](c2ccc(O)cc2)[C@@H]1C(=O)N1C(=O)OC[C@@H]1c1ccccc1	0.0
C[C@@H]1CN([C@@H](C)CO)C(=O)c2cccc(NS(=O)(=O)c3cccs3)c2O[C@@H]1CN(C)Cc1ccc(Oc2ccccc2)cc1	-1.0
C[C@H]1CN([C@@H](C)CO)C(=O)CCCn2nncc2CO[C@H]1CN(C)S(=O)(=O)c1ccc2ccccc2c1	-0.2
COc1ccc(CN(C)C[C@H]2OCCCC[C@@H](C)Oc3ccc(NS(=O)(=O)c4cn(C)cn4)cc3C(=O)N([C@@H](C)CO)C[C@H]2C)cc1	-0.5
C[C@H](CO)N1C[C@H](C)[C@@H](CN(C)Cc2ccc(-c3ccccc3)cc2)Oc2c(NS(=O)(=O)c3ccc(Cl)cc3)cccc2C1=O	-1.0
C[C@H](CO)N1C[C@H](C)[C@@H](CN(C)Cc2ccc3c(c2)OCO3)Oc2c(NS(C)(=O)=O)cccc2C1=O	0.4
C[C@@H]1CCCCO[C@H](CN(C)CC2CCCCC2)[C@H](C)CN([C@H](C)CO)C(=O)c2cc(NS(=O)(=O)c3ccccc3)ccc2O1	1.0
CC(C)NC(=O)Nc1ccc2c(c1)C(=O)N([C@@H](C)CO)C[C@@H](C)[C@@H](CN(C)Cc1ccc(C(=O)O)cc1)O2	-0.9
C[C@@H]1CN([C@H](C)CO)C(=O)c2cc(NC(=O)Cc3cn(C)c4ccccc34)ccc2O[C@@H]1CN(C)C(=O)Nc1ccc2c(c1)OCO2	-0.3
COc1ccc(NC(=O)Nc2cccc3c2O[C@@H](CN(C)S(=O)(=O)c2ccccc2)[C@@H](C)CN([C@H](C)CO)C3=O)cc1	-0.3
C[C@@H]1CN([C@@H](C)CO)C(=O)c2cc(NC(=O)Cc3cn(C)c4ccccc34)ccc2O[C@H]1CN(C)Cc1ccncc1	-0.3
C[C@@H]1CCCCO[C@@H](CN(C)C(=O)C2CCCCC2)[C@H](C)CN([C@H](C)CO)C(=O)c2cc(NC(=O)Cc3ccccc3)ccc2O1	3.2
C[C@@H]1CCCCO[C@@H](CN(C)C(=O)Nc2ccc(F)cc2)[C@H](C)CN([C@H](C)CO)C(=O)c2cc(NC(=O)CCCN(C)C)ccc2O1	0.1
C[C@@H]1CN([C@H](C)CO)C(=O)c2cc(NS(C)(=O)=O)ccc2O[C@@H](C)CCCCO[C@H]1CN(C)S(=O)(=O)c1cccs1	0.7
C[C@@H]1CCCCO[C@H](CN(C)S(=O)(=O)c2cccs2)[C@@H](C)CN([C@@H](C)CO)C(=O)c2cc(NS(C)(=O)=O)ccc2O1	-0.1
COc1ccc(CN(C)C[C@H]2Oc3c(NC(=O)Nc4ccc5c(c4)OCO5)cccc3C(=O)N([C@H](C)CO)C[C@@H]2C)cc1	-0.5
Cc1ccc(S(=O)(=O)Nc2cccc3c2O[C@@H](CN(C)S(=O)(=O)c2ccc(Cl)cc2)[C@H](C)CN([C@H](C)CO)C3=O)cc1	-0.8
CC(C)(C)[C@H]1C=C(C(=O)N2CCOCC2)O[C@@H](OCCCCO)C1	0.1
COc1ccc(S(=O)(=O)N(C)C[C@H]2Oc3ccc(NS(=O)(=O)c4ccc(Cl)cc4)cc3CC(=O)N([C@H](C)CO)C[C@@H]2C)cc1	-0.4
O=C(CCCCCC(=O)Nc1ccccc1O)N/N=C/C1=CCCCC1	0.2
C[C@@H]1CN([C@@H](C)CO)C(=O)c2cc(NS(=O)(=O)c3ccc(Cl)cc3)ccc2O[C@@H](C)CCCCO[C@@H]1CN(C)Cc1ccc(C(=O)O)cc1	-1.0
C[C@H](CO)N1C[C@H](C)[C@H](CN(C)C(=O)Nc2ccccc2)Oc2ccc(NC(=O)CCCN(C)C)cc2C1=O	0.5
C[C@H]1CN([C@@H](C)CO)C(=O)c2cc(NC(=O)Nc3ccccc3)ccc2O[C@@H]1CN(C)S(=O)(=O)c1ccc(F)cc1	1.2
Cc1ccc(S(=O)(=O)Nc2ccc3c(c2)C(=O)N([C@@H](C)CO)C[C@H](C)[C@@H](CN(C)S(C)(=O)=O)OCCCC[C@@H](C)O3)cc1	0.7
C[C@H]1CN([C@@H](C)CO)C(=O)c2cc(NC(=O)CCC(F)(F)F)ccc2O[C@@H]1CN(C)Cc1ccc(Cl)c(Cl)c1	-0.4
Cc1noc(C)c1S(=O)(=O)Nc1cccc2c1O[C@@H](CN(C)Cc1ccncc1)[C@@H](C)CN([C@@H](C)CO)C2=O	-0.3
C[C@@H]1CCCCO[C@H](CN(C)S(=O)(=O)c2cn(C)cn2)[C@@H](C)CN([C@@H](C)CO)C(=O)c2cc(NS(=O)(=O)c3cccs3)ccc2O1	0.5
CC(C)NC(=O)Nc1ccc2c(c1)C(=O)N([C@H](C)CO)C[C@@H](C)[C@@H](CN(C)Cc1ccccc1)OCCCC[C@@H](C)O2	-0.4
C[C@H](CO)N1C[C@H](C)[C@H](CN(C)C(=O)NC2CCCCC2)Oc2ccc(NC(=O)Nc3ccc4c(c3)OCO4)cc2CC1=O	0.7
C[C@H]1CN([C@@H](C)CO)C(=O)c2cc(NC(=O)C3CC3)ccc2O[C@H]1CN(C)S(=O)(=O)c1cccs1	-0.3
CCCN(C)C[C@@H]1OCCCC[C@@H](C)Oc2ccc(NS(C)(=O)=O)cc2C(=O)N([C@@H](C)CO)C[C@@H]1C	0.5
COC(=O)c1c2oc(c1C(=O)OC)C(=O)N(C)Cc1cn(nn1)C[C@H](Cc1ccccc1)NC(=O)N[C@H](CO)CC2	-0.2
Cc1noc(C)c1S(=O)(=O)Nc1ccc2c(c1)C(=O)N([C@H](C)CO)C[C@H](C)[C@@H](CN(C)C(=O)NC(C)C)OCCCC[C@@H](C)O2	0.6
C[C@@H]1CN([C@@H](C)CO)C(=O)c2cccc(NC(=O)c3nc4ccccc4s3)c2O[C@@H]1CN(C)S(=O)(=O)c1cn(C)cn1	-0.2
C[C@@H]1CN([C@H](C)CO)C(=O)c2cccc(NS(=O)(=O)c3cccs3)c2O[C@@H]1CN(C)Cc1ccccc1	-0.2
Cc1ccc(S(=O)(=O)N(C)C[C@H]2Oc3c(cccc3N(C)C)C(=O)N([C@H](C)CO)C[C@H]2C)cc1	0.5

Sorted by heavy-atom count (low to high): part of the list above.
mol	A1 apoptosis 2
C[C@@H]1CN([C@H](C)CO)C(=O)c2cccc(NS(=O)(=O)c3cccs3)c2O[C@@H]1CN(C)Cc1ccccc1	-0.2
Cc1noc(C)c1S(=O)(=O)Nc1cccc2c1O[C@@H](CN(C)Cc1ccncc1)[C@@H](C)CN([C@@H](C)CO)C2=O	-0.3
C[C@H](CO)N1C[C@H](C)[C@H](CN(C)C(=O)NC2CCCCC2)Oc2ccc(NC(=O)Nc3ccc4c(c3)OCO4)cc2CC1=O	0.7

(list continues)
mol	A1 apoptosis 2
COc1ccc(NC(=O)Nc2cccc3c2O[C@@H](CN(C)C(=O)Nc2ccc(F)cc2)[C@H](C)CN([C@H](C)CO)C3=O)cc1	-0.4
Cc1noc(C)c1NC(=O)Nc1cccc2c1O[C@@H](CN(C)C(=O)NC1CCCCC1)[C@H](C)CN([C@@H](C)CO)C2=O	0.3
C[C@@H]1CN([C@@H](C)CO)C(=O)c2cccc(NC(=O)c3ccncc3)c2O[C@@H]1CN(C)S(=O)(=O)c1cn(C)cn1	0.0
CC(C)NC(=O)Nc1ccc2c(c1)C(=O)N([C@H](C)CO)C[C@H](C)[C@@H](CN(C)S(=O)(=O)c1cn(C)cn1)OCCCC[C@@H](C)O2	-0.1
C[C@@H]1CN([C@@H](C)CO)C(=O)CCCn2nncc2CO[C@@H]1CN(C)Cc1cccc(C(F)(F)F)c1	1.1
C[C@@H]1CCCCO[C@@H](CN(C)Cc2ccc3c(c2)OCO3)[C@H](C)CN([C@@H](C)CO)C(=O)c2cc(NC(=O)c3ccccc3)ccc2O1	0.5
C[C@H]1CN([C@@H](C)CO)C(=O)c2cccc(NS(=O)(=O)c3ccc(F)cc3)c2O[C@H]1CN(C)CC1CC1	0.3
C[C@@H]1CN([C@H](C)CO)C(=O)c2cc(NC(=O)Nc3ccc4c(c3)OCO4)ccc2O[C@@H](C)CCCCO[C@H]1CN(C)S(=O)(=O)c1cn(C)cn1	0.8
Cc1noc(C)c1NC(=O)N(C)C[C@@H]1Oc2ccc(NC(=O)c3ccncc3)cc2CC(=O)N([C@@H](C)CO)C[C@H]1C	-0.3
COc1ccc(CN(C)C[C@@H]2Oc3ccc(NC(=O)Cn4cnnn4)cc3C(=O)N([C@H](C)CO)C[C@H]2C)cc1	-0.6
